RN4220 kill – S. aureus RN4220 growth inhibition | 330,000 tested, 0.33% active | inhibition, % (concentration not given with the values) | OD600, 16 h | AID 1259311;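 active = z-score of -3 or lower and OD600 up to 0.18 on both plates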;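 also: plate controls were untreated cells for no effect and reference antibiotic for full effect; stock transfer was 100 nL into about 80 µL; one replicate is shown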
Autofluor counter – flagged as autofluorescent in microsphere protease counterscreen; compound autofluorescence counterscreen, microsphere flow cytometry; hits give high values; fluorescence intensity (no concentration beside the values); 360,000 tested, 3.1% active;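 active = at least 3 SD above the mean of all compounds, about 16000 in these data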;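 also: 100 nL of 1 mM stock went into each well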
Mtb hypoxia rep – inhibitors of hypoxia-regulated fluorescent reporter in Mycobacterium tuberculosis. M. tuberculosis hypoxia-regulated fluorescent reporter, fluorescence. fluorescence inhibition, % (test concentration not listed). 300,000 tested, 0.1% active. AID 1159583;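 active = 35 to 45% if threefold the growth effect, above 45% if 1.5-fold the growth effect; inactive = the rest, general growth blockers included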;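 also: wells of about 50 µL received 100 nL stock; 0% = vehicle wells and 100% = reference inhibitor wells; whole bacteria with a GFP reporter of the hypoxia response; strong numbers were not always called active; many hits fall short of the cut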
PrP UTR inh – suppresses PrP 5' UTR mRNA reporter expression | cell-based PrP 5' UTR mRNA reporter, plate reader | inhibition, % (test concentration not listed) | 340,000 tested, 0.35% active | AID 488862;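 active = every replicate at 50% or more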;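 also: 0 = median of the neutral control wells; tested in H4 reporter cells; numbers are from one replicate; inactives centre near -14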
ugtP null kill – kills S. aureus RN4220 lacking UgtP; S. aureus RN4220 ugtP deletion, OD600 growth, 16 h; some inactives read as strong as hits; growth inhibition, % (test concentration not listed); 330,000 tested, 0.54% active; AID 1259309;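 active = z-score under -3 and OD600 up to 0.15 on both plates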;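 also: plate controls were untreated wells for no effect and antibiotic for full effect; wells of about 80 µL received 100 nL stock; the first replicate is given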
BJeLR viability – BJeLR cell viability loss. 300,000 tested, 0.17% active. inhibition, % (no concentration beside the values). BJeLR (HRASV12) viability, CellTiter-Glo ATP luminescence, 48 h; reference of the scale not given here;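 active = replicate mean above 50%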;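 also: 50 nL library stock added to about 25 µL; numbers are from one replicate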
Mtb hypoxia rep growth – second read-out of Mtb hypoxia rep, no call of its own (marks repeat the call); growth inhibition, %; measured here: M. tuberculosis growth (absorbance);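 0% = vehicle and 100% = reference antibiotic; read after six days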
Numbers without * were called inactive; nt = no result given; & = joins results of further samples.

No.	mol	RN4220 kill	Autofluor counter	Mtb hypoxia rep	Mtb hypoxia rep growth	PrP UTR inh	ugtP null kill	BJeLR viability
1	Cc1ncsc1C(=O)N1CCCC(CNS(=O)(=O)c2cccs2)C1 (stereo unspecified)	5.4	3595	4	6	-14	5	-14
2	CC1CCCN(c2ccc3nc4ccccc4c(=O)n3n2)C1 (stereo unspecified)	9.9	4240	12	6	-16	-4	5
3	Cc1noc(C)c1COc1ccc(C(=O)NNC(=O)c2ccccc2O)cc1	-1.7	6323	-2	5	-13	-5	8
4	COc1ccc(OC)c(CNn2c(-c3cccc(C)c3)nc3ccccc3c2=O)c1	8.8	8352	11	12	-20	-3	1
5	O=C(CN(C(=O)Cn1nnc(-c2ccc(F)cc2)n1)C1CCCC1)NC1CCCC1	0.0	9932	4	10	-19	6	-9
6	N#CCCN(Cc1cccnc1)C(=S)NC1CC2C=CC1C2 (stereo unspecified)	2.5	5202	12	2	-50	8	-7
7	CCOC(=O)c1cnc(SCC(=O)Nc2ccc3c(c2)OCCO3)nc1N	-5.6	3225	11	9	-3	3	4
8	Cn1c(CNC(=O)c2ccco2)nnc1SCC(=O)c1ccc(Br)cc1	3.7	4164	-9	2	-30	-6	-1
9	CCC(C)(C)NC(=S)Nc1ccc(-c2nc3ccc(C)cc3s2)cc1	0.4	2470	-12	-14	-145	4	0
10	COc1ccc(NC(=O)CN(C)S(=O)(=O)c2ccc3c(c2)c(=O)n(C)c(=O)n3C)cc1	4.4	4155	8	0	14	9	-15
11	CCCN(CC#CCOc1ccc(OC)cc1)CCC	3.5	5032	nt	nt	-20	-1	1
12	CCN(CC)Cc1c(C(=O)N2CCc3ccccc3C2)nc2ccc(Cl)cn12	2.5	3950	3	4	-10	3	-6
13	Cc1ccc[n+](C(C(=S)NCc2ccco2)=C([O-])c2ccccc2Cl)c1	2.9	3642	-12	2	-1	3	nt
14	Cc1ccc(NC(=O)CO/N=C(\N)c2ccccc2)cc1C	-1.5	3996	0	11	-16	-6	nt
15	CN(C)C(=O)c1nc2ccccc2s1	6.8	2415	17	4	-3	2	3

Remaining list, next part.
No.	mol	RN4220 kill	Autofluor counter	Mtb hypoxia rep	Mtb hypoxia rep growth	PrP UTR inh	ugtP null kill	BJeLR viability
16	CCO/N=C/c1ccc(OC)c(Oc2nc(OC)cc(OC)n2)c1	nt	2391	nt	nt	-13	nt	-8
17	COC(=O)c1cccnc1-n1c(=O)c2cccnc2n(CC(=O)Nc2ccc(Br)cc2)c1=O	1.6	3593	-3	7	-13	-5	-1
18	COCn1c(-c2ccccc2)nc2ccccc21	3.1	8972	6	5	-7	4	3
19	S=C1NC2=C(CCC/C2=C\c2ccc(Cl)cc2)C(c2ccc(Cl)cc2)N1 (stereo unspecified)	0.4	4272	8	1	6	13	-1
20	COc1ccc(/C(N)=N/OC(=O)Cc2ccc(C)cc2)cc1OC	3.6	1966	11	5	-12	6	3
21	COc1ccccc1CC(=O)Nc1ccc2c(c1)CCC2	5.9	2593	7	7	-29	7	1
22	CCOC(=O)N1CCN(C(=O)COC(=O)COc2c(C)cc(C)cc2C)CC1	2.8	4589	-3	1	-4	1	0
23	CC(=O)OCCNc1cc(SC(C)C)c2nonc2c1[N+](=O)[O-]	2.5	3967	-5	9	-20	0	nt
24	O=C(O)COc1ccc(/C=N/O)cc1Br	nt	4217	nt	nt	-10	nt	2
25	COc1ccccc1-c1nc(C(=O)NCC2CCCO2)cc2c1[nH]c1ccccc12 (stereo unspecified)	-3.0	5854	nt	nt	-23	-8	0
26	CCOC(=O)[C@@H]1[C@H]2COc3cc(OC)ccc3[C@H]2N2C(=O)N(c3cccc(Cl)c3)C(=O)[C@]12C	nt	3729	nt	nt	-16	nt	-5
27	O=C(NN1C(=O)C2C(c3ccccc3)C=CC(c3ccccc3)C2C1=O)c1ccncc1 (stereo unspecified)	13	2258	6	5	-26	16	-5
28	COc1ccc(CCNS(=O)(=O)c2ccc3c(c2)NC(=O)C(C)S3)cc1OC (stereo unspecified)	0.1	4542	-3	2	-1	-1	5
29	NC(=O)C[n+]1cccc(CNC(=O)c2ccc(OC(F)F)cc2)c1	2.6	4641	3	5	-22	17	0
30	c1ccc(CCC2=NCCn3cccc32)cc1	2.7&3.2	3615&10993	5&2	-1&8	-14&-65	1&-4	6

Shown with values under each structure: part of the list above.
Order of values: RN4220 kill	Autofluor counter	Mtb hypoxia rep	Mtb hypoxia rep growth	PrP UTR inh	ugtP null kill	BJeLR viability
#16 CCO/N=C/c1ccc(OC)c(Oc2nc(OC)cc(OC)n2)c1
  nt	2391	nt	nt	-13	nt	-8
#17 COC(=O)c1cccnc1-n1c(=O)c2cccnc2n(CC(=O)Nc2ccc(Br)cc2)c1=O
  1.6	3593	-3	7	-13	-5	-1
#18 COCn1c(-c2ccccc2)nc2ccccc21
  3.1	8972	6	5	-7	4	3
#19 S=C1NC2=C(CCC/C2=C\c2ccc(Cl)cc2)C(c2ccc(Cl)cc2)N1 (stereo unspecified)
  0.4	4272	8	1	6	13	-1
#20 COc1ccc(/C(N)=N/OC(=O)Cc2ccc(C)cc2)cc1OC
  3.6	1966	11	5	-12	6	3
#21 COc1ccccc1CC(=O)Nc1ccc2c(c1)CCC2
  5.9	2593	7	7	-29	7	1
#22 CCOC(=O)N1CCN(C(=O)COC(=O)COc2c(C)cc(C)cc2C)CC1
  2.8	4589	-3	1	-4	1	0
#23 CC(=O)OCCNc1cc(SC(C)C)c2nonc2c1[N+](=O)[O-]
  2.5	3967	-5	9	-20	0	nt
#24 O=C(O)COc1ccc(/C=N/O)cc1Br
  nt	4217	nt	nt	-10	nt	2
#25 COc1ccccc1-c1nc(C(=O)NCC2CCCO2)cc2c1[nH]c1ccccc12 (stereo unspecified)
  -3.0	5854	nt	nt	-23	-8	0

The list continues.
No.	mol	RN4220 kill	Autofluor counter	Mtb hypoxia rep	Mtb hypoxia rep growth	PrP UTR inh	ugtP null kill	BJeLR viability
31	O=C(Cn1c(=O)c2c(ncn2Cc2ccccc2)n(Cc2ccccc2)c1=O)NC1CC1	2.0	19673*	-1	2	-14	-4	-3
32	CCOc1ccccc1NC(=O)C1CC2CCCC(C1)C2=O (stereo unspecified)	-1.2	23703*	-9	4	0	-5	-13
33	CCOC(=O)C=c1sc(=Cc2ccccc2C)c(=O)n1CC(=O)NCc1ccc2c(c1)OCO2	-0.7	nt	8	2	nt	1	nt
34	CCC(C)Nc1nc(N)c([N+](=O)[O-])c(Nc2cc(OC)ccc2OC)n1 (stereo unspecified)	5.1	5546	9	-3	-6	-9	1
35	CC1Cc2ccccc2N1c1ncnc(N)c1[N+](=O)[O-] (stereo unspecified)	4.3	4281	14	0	27	-2	10
36	CCN(CC(=O)N1CCc2ccccc2C1)S(=O)(=O)c1ccc2ccccc2c1	1.1	10338	0	1	-2	-5	4
37	CCOC(=O)N1CCc2c(sc(N)c2C#N)C1	6.3	nt	-1	-9	nt	1	-2
38	CCCCn1c(CCNC(=O)c2cccs2)nc2ccccc21	-8.9	2039	nt	nt	1	-15	3
39	Cc1cc(NC(=O)CSc2sc3c(O)cc(=O)[nH]c3c2C#N)ccc1Br	3.2	3764	-5	-4	-12	-4	5
40	O=C(Nc1cccc2ccccc12)NC(Cc1ccccc1)C(=O)O (stereo unspecified)	-0.6	3219	16	6	6	13	-6
41	COc1cccc(C2=NOC(C(=O)Nc3cccnc3Cl)C2)c1 (stereo unspecified)	3.9	2275	4	15	-18	-1	-1
42	CSc1ccc(C2=C/C(=C3/SC(=S)NC3=O)c3ccccc3O2)cc1	5.6	3118	nt	nt	-21	-6	nt
43	Cc1ccc(-n2c(C)cc(/C=N/NC(=O)CN(c3ccc(C)cc3C)S(C)(=O)=O)c2C)cc1	nt	2910	nt	nt	-10	nt	-11
44	CN(C)c1nc2sc3c(c2c(=O)n1C)CC(C)(C)OC3	19	2567	13	6	-7	18	2
45	COC(=O)CN1C(=S)N(c2ccc(F)cc2)C(=O)C1CC(=O)Nc1ccc(F)cc1 (stereo unspecified)	0.5	3771	14	3	-6	5	4

Later entries.
No.	mol	RN4220 kill	Autofluor counter	Mtb hypoxia rep	Mtb hypoxia rep growth	PrP UTR inh	ugtP null kill	BJeLR viability
46	Cc1ccccc1C(=O)NC(=S)NCc1ccccc1	0.0	nt	7	-1	-14	11	-28
47	O=C(Cc1ccc(N2CCNC2=O)cc1)N1CCCC(Nc2cccc(F)c2)C1 (stereo unspecified)	2.9	5455	-1	-2	-56	0	11
48	CCOC(=O)C1CCN(S(=O)(=O)c2cccc(-c3cn4cc(C)ccc4n3)c2)CC1	-11	3172	7	3	-11	1	-4
49	O=C(COc1ccccc1[N+](=O)[O-])N(Cc1ccco1)C1CCS(=O)(=O)C1 (stereo unspecified)	3.3	5305	6	1	-32	9	14
50	O=C(NN=Cc1ccncc1)C1CC1C(=O)NN=Cc1ccncc1 (stereo unspecified)	0.2	nt	10	-2	nt	0	nt
51	COc1cc(NS(=O)(=O)c2ccc(NC(=O)/C(=C\c3ccccc3OC)NC(=O)c3ccccc3)cc2)nc(OC)n1	11	10322	2	2	-22	-6	-3
52	O=C(Nc1cccc(F)c1)NC1CCCCCCC1	8.2	5877	nt	nt	-48	-4	nt
53	COc1ccccc1C(=O)Nc1c2c(nn1-c1ccc(Cl)cc1)CS(=O)(=O)C2	-0.7	5400	-5	-9	12	-3	4
54	CC(=O)N1c2ccc(S(=O)(=O)N(C)Cc3ccco3)cc2CC1C (stereo unspecified)	5.5	4355	13	-1	-3	7	4
55	CC(=O)Nc1cc(C(=O)OCc2cccc([N+](=O)[O-])c2)ccc1C	7.6	2280	8	3	5	-5	-3
56	COCC(=O)Nc1cccc(C(F)(F)F)c1	-1.2	3757	9	5	-17	1	4
57	COCCCNC(=O)CN(c1cc(Cl)ccc1OC)S(=O)(=O)c1ccc(C)c([N+](=O)[O-])c1	4.4	5044	5	-2	-24	1	-5
58	COc1cccc(NC(=O)c2nc3nc(C)cc(C(F)F)n3n2)c1	2.5	6017	nt	nt	-16	1	13
59	CCNS(=O)(=O)c1ccc(CCC(=O)N2CCN(Cc3ccccc3)CC2)cc1	1.8	4081	-4	5	-26	10	2
60	CC[N+](CC)(CC(=O)Nc1c(C)cccc1C)Cc1ccccc1	4.5	5596	3	-5	-22	-4	nt

Remaining list, next part:
No.	mol	RN4220 kill	Autofluor counter	Mtb hypoxia rep	Mtb hypoxia rep growth	PrP UTR inh	ugtP null kill	BJeLR viability
61	CSc1ccc(/C=N/Nc2nc(C)cc(=O)[nH]2)cc1	nt	4255	nt	nt	-14	nt	-4
62	COc1ccccc1OCCNC(=O)CCNC(=O)c1ccccc1OC	4.7	5416	5	0	nt	2	nt
63	O=C(COC(=O)Cc1ccc(Cl)cc1)Nc1cc(S(=O)(=O)N2CCOCC2)ccc1N1CCCC1	7.8	2305	4	1	-1	7	-1
64	O=C(O)c1ccc(S(=O)(=O)c2ccc3c(c2)C(=O)N(NC(=O)c2ccncc2)C3=O)cc1	0.9	4456	16	8	0	-1	5
65	CCCOC(=O)Cn1cnc2scc(-c3ccc(OC)cc3)c2c1=O	-1.9	3892	-4	-2	-5	5	1
66	CC(C)(C)c1ccccc1NC(=S)NCc1ccccc1	1.3	2441	-2	-2	-40	-2	-10
67	COc1cccc(C(=O)C2CCCN(Cc3ccon3)C2)c1 (stereo unspecified)	6.2	2287	9	2	-27	12	nt
68	Cc1c(NC(=O)c2c(N)sc3c2CCCC3)c(=O)n(-c2ccccc2)n1C	-1.9	4174	-3	12	-14	3	-4
69	COc1ccccc1NC(C)=[N+](C)CCNS(=O)(=O)c1ccc(Cl)cc1	3.8	5424	5	-1	-10	2	5
70	CC(C)C(c1nnnn1Cc1ccco1)N1CCN(c2cccc(Cl)c2)CC1 (stereo unspecified)	10	2965	nt	nt	-11	-2	-7
71	CC1=CC(C)(C)N2C(=O)C(=Nc3ccc(O)cc3)c3cccc1c32	7.2	3284	12	-1	-12	1	1
72	CNS(=O)(=O)c1ccc2c(c1)oc(=O)c1cc(S(=O)(=O)NC)ccc12	-1.1	3498	19	11	-12	4	3
73	CO/N=C(\N)c1ccc([N+](=O)[O-])cc1	nt	2134	nt	nt	-14	nt	-3
74	C#CCOc1ccc(Cl)cc1C=NO	3.4	nt	10	4	nt	3	nt
75	COc1ccccc1NC(=O)c1c(O)c2ccccc2[nH]c1=O	0.9	2910	14	-13	-58	5	1
76	CC1=CC(=O)C2=C(C)CC[C@@H]3[C@H](OC(=O)[C@H]3C)[C@@H]12	nt	3652	nt	nt	-27	nt	-6
77	COCCNC(=S)N(CCc1c(C)[nH]c2ccc(C)cc12)Cc1cccnc1	2.3	3044	-2	-9	-16	7	-10

Screening results: PubChem, several laboratories
